# Assay outcomes (PubChem)
# DUX4 txn inh – blocks DUX4-driven transcriptional activation | 293T-iDUX4 ZSCAN4-Gaussia luciferase reporter, 24 h; hits give low values | activity change, negative = inhibition, % (no concentration beside the values) | hit rate 0.8% among 37,000 | AID 1224904;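 active = -10% or lower and over 25 points stronger than a control reporter; inconclusive = -10% or lower with a smaller gap; inactive = above -10%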;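 note: 0% = median of neutral control wells and -100% = median of positive control wells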
# DUX4 txn inh difference – recorded beside DUX4 txn inh, whose call it bears; Gaussia minus Italica difference, %; measured here: selective DUX4 reporter inhibition;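 worked out from the two reporters; negative = selective loss of the DUX4 reporter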
# DUX4 txn inh control – recorded beside DUX4 txn inh, whose call it bears; activity change, negative = inhibition, %; measured here: Italica tet-on control reporter;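 0 = neutral control and -100 = positive control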
# * = called active by the depositor; ? = inconclusive; . = no result given; & = joins results of further samples. Not all compounds are listed (hit frequency here may not be typical).
SMILES,DUX4 txn inh,DUX4 txn inh difference,DUX4 txn inh control
COc1ccc(NC(=O)Nc2ccc3c(c2)[C@@H]2C[C@@H](CC(=O)NCc4ccncc4)O[C@@H](CO)[C@@H]2O3)cc1,-2,-4,2.0
C[C@@H]1CN([C@@H](C)CO)C(=O)c2cc(C#CC(C)(C)O)cnc2O[C@@H]1CN(C)Cc1ccccn1,5,4,0.9
CS(=O)(=O)N1CC(=O)N2[C@H](C1)[C@@H](c1ccc(C#Cc3ccc(F)cc3)cc1)[C@@H]2CO,-2,33,-35
CC(=O)N1CC(=O)N2[C@H](CO)[C@@H](c3ccc(-c4ccc(C)cc4)cc3)[C@@H]2C1,9,4,4.6
Cc1cccc(CN(C)C[C@H]2OCc3cnnn3CCCC(=O)N([C@H](C)CO)C[C@H]2C)c1,-4,-4,-0.3
O=C(c1cnccn1)N1CC(=O)N2[C@H](C1)[C@H](c1ccc(-c3ccccc3)cc1)[C@@H]2CO,8,7,1.2
O=C(N[C@@H]1C=C[C@H](CC(=O)N2CCN(c3ccccc3)CC2)O[C@H]1CO)c1ccccc1,0,2,-2.1
CCC(=O)N1[C@@H]2Cn3c(ccc(C4=CCCCC4)c3=O)[C@H]1[C@@H](C(=O)N[C@@H](C)c1ccccc1)[C@@H]2CO,2,5,-3.8
CCC(=O)N1C[C@@H](C)[C@@H](OC)CN(C)C(=O)c2ccc(NC(=O)C3CCOCC3)cc2OC[C@H]1C,6,1,5.1
COCC#Cc1cnc2c(c1)C(=O)N([C@@H](C)CO)C[C@H](C)[C@@H](CN(C)Cc1ccc(-c3ccccc3)cc1)O2,-1,-2,0.9
C[C@@H](NC(=O)C[C@@H]1CC[C@H]2[C@@H](COC[C@@H](O)CN2C(=O)Nc2cc(Cl)cc(Cl)c2)O1)c1ccccc1,?,.,.
CC(C)(C)[S@](=O)N1Cc2cc(C(=O)NCCc3ccncc3)nc(-c3cccc(-c4cccnc4)c3)c2[C@@H]1CCO,-1,1,-1.6
CCC(=O)N1CC2(CCN(C(=O)Nc3ccc(F)cc3)CC2)c2c([nH]c3cc(OC)ccc23)[C@@H]1CO,5,14,-8.7
O=C([C@@H]1[C@@H](CO)[C@@H]2Cn3c(ccc(C4=CCCC4)c3=O)[C@H]1N2C(=O)c1ccccc1)N1CCOCC1,7,6,0.9
CCCC(=O)N1CC2(CN(S(C)(=O)=O)C2)c2c([nH]c3cc(OC)ccc23)[C@@H]1CO,18,6,12
O=C(C[C@@H]1C[C@H]2c3cc(NC(=O)c4ccc5c(c4)OCO5)ccc3O[C@H]2[C@@H](CO)O1)NCc1cccc(F)c1,1,-2,3.4
O=C(C[C@H]1CC[C@@H]2[C@H](COC[C@@H](O)CN2Cc2cc(F)ccc2F)O1)NCc1ccc(Cl)cc1,2,1,0.6
COCC(=O)N1[C@H](CO)[C@@H](c2ccccc2)[C@@H]1C#N,3,0,2.5
CC(C)COC(=O)N(C)C[C@H]1OCc2ccccc2-c2c(n(C)c3ccccc23)C(=O)N([C@@H](C)CO)C[C@@H]1C,-2,4,-5.9
O=C(c1ccccn1)N1CC(=O)N2[C@H](C1)[C@@H](c1ccc(-c3cccc(F)c3)cc1)[C@@H]2CO,12,15,-3.2
CCCC#Cc1ccc([C@H]2[C@H](CO)N3CCCCN(S(=O)(=O)Cc4ccccc4)C[C@@H]23)cc1,?,.,.
COc1cccc(S(=O)(=O)Nc2ccc3c(c2)C(=O)N(C)[C@@H]2CC[C@@H](CC(=O)O)O[C@H]2CO3)c1,0,-1,0.4
CO[C@H]1CC[C@@H]2CCN(C)C(=O)[C@H](C)[C@H](OC)CN(C)C(=O)c3cccc(C#N)c3OC[C@H]1O2,-1,-4,2.9
CCS(=O)(=O)Nc1ccc2c(c1)C(=O)N(C)[C@@H]1CC[C@@H](CC(=O)NCc3ccccc3F)O[C@@H]1CO2,0,0,0.6
O=C(C[C@@H]1C[C@@H]2c3cc(NC(=O)C4CCC4)ccc3O[C@@H]2[C@@H](CO)O1)NCCc1ccccc1,1,-6,7.6
N#Cc1ccc(-c2ccc([C@H]3[C@H]4CNCC(=O)N4[C@H]3CO)cc2)cc1,2,0,1.8
COc1ccc(C(=O)Nc2ccc3c(c2)OC[C@H](C)NC[C@@H](C)[C@H](OC)CN(C)C3=O)cc1,3,4,-0.9
O=C(C[C@@H]1CC[C@@H]2[C@H](COC[C@@H](O)CN2S(=O)(=O)c2ccc(F)cc2)O1)N[C@H]1CCN(Cc2ccccc2)C1,4,2,2.4
COCC#Cc1ccc([C@H]2[C@H](CO)N3C(=O)CN(C(=O)Nc4ccc(F)cc4)C[C@@H]23)cc1,7,1,6.3
Cc1ccc(S(=O)(=O)Nc2ccc3c(c2)C(=O)N([C@H](C)CO)C[C@H](C)[C@@H](CN(C)S(=O)(=O)c2cccs2)OCCCC[C@@H](C)O3)cc1,0,1,-0.8
CC(C)OC(=O)N(C)C[C@H]1OCc2ccccc2-c2c(n(C)c3ccccc23)C(=O)N([C@@H](C)CO)C[C@@H]1C,-4,6,-9.7
CO[C@H]1CN(C)C(=O)c2ccc(NC(=O)Nc3cc(F)ccc3F)cc2OC[C@@H](C)N(C)C[C@@H]1C,-1,-1,0.1
COc1ccc(NC(=O)N2CC(=O)N3[C@H](C2)[C@@H](c2ccc(-c4ccc(C)cc4)cc2)[C@@H]3CO)cc1,?,.,.
O=C(Cc1ccccc1)N1C[C@@H]2[C@H](c3ccccc31)[C@H](CO)N2S(=O)(=O)c1ccccc1,-4,-3,-1.2
CC=Cc1ccc2n(c1=O)C[C@@H]1[C@@H](CO)[C@H](C(=O)NCC)N(CC3CCOCC3)[C@H]21 (mixture of isomers),-1,2,-3.0
CNC[C@H]1Oc2ncc(C#CC3(O)CCCC3)cc2C(=O)N([C@@H](C)CO)C[C@H]1C,-1,-3,2.7
C[C@H](O)C#Cc1ccc([C@H]2[C@H](CO)N3CCCCN(C(=O)c4cccc(F)c4)C[C@@H]23)cc1,11,12,-1.1
O=C(C[C@H]1CC[C@@H]2[C@H](COC[C@H](O)CN2C(=O)Nc2ccc(F)cc2)O1)NC1Cc2ccccc2C1,2,1,1.5
COc1ccc(S(=O)(=O)Nc2ccc3c(c2)C(=O)N([C@@H](C)CO)C[C@H](C)[C@@H](CN(C)CC2CC2)OCCCC[C@H](C)O3)cc1,-1,1,-2.2
CO[C@H]1CN(C)C(=O)c2cc(NC(C)=O)ccc2OC[C@H](C)N(C(=O)Cc2ccccn2)C[C@H]1C,7,9,-2.1
O=C1CCCn2cc(nn2)COCC2CCCN12 (stereo unspecified),-5,-1,-3.3
CNC[C@@H]1Oc2c(NC(=O)c3nc4ccccc4s3)cccc2C(=O)N([C@@H](C)CO)C[C@H]1C,-2,0,-2.0
C/C=C/c1ccc([C@@H]2[C@@H](CN(C)C(=O)CC)N(C(=O)NC(C)C)[C@H]2CO)cc1,-3,-4,1.2
CC(C)OC(=O)N(C)C[C@H]1OCc2cn(nn2)CCCC(=O)N([C@H](C)CO)C[C@H]1C,6,2,3.7
O=C(C[C@H]1C=C[C@H](NC(=O)Cc2cccnc2)[C@H](CO)O1)Nc1ccc(-c2ccccc2)cc1,-9,-7,-1.4
N#Cc1cccc(-c2ccc(C3[C@H]4CNC[C@@H]3N4S(=O)(=O)c3ccc(F)cc3)cc2)c1 (stereo partly specified),10&17,8&4,2.1&13
C[C@H]1CN([C@@H](C)CO)C(=O)Cc2cc(NS(=O)(=O)c3ccccc3)ccc2O[C@H]1CN(C)Cc1ccc(C(=O)O)cc1,1,0,0.9
COc1ccccc1-c1ccc([C@H]2[C@H]3CN(S(=O)(=O)c4cn(C)cn4)CCCCN3[C@H]2CO)cc1,6,7,-1.5

# Compounds above that contain a cyano group, in the order listed:
SMILES,DUX4 txn inh,DUX4 txn inh difference,DUX4 txn inh control
COCC(=O)N1[C@H](CO)[C@@H](c2ccccc2)[C@@H]1C#N,3,0,2.5
CO[C@H]1CC[C@@H]2CCN(C)C(=O)[C@H](C)[C@H](OC)CN(C)C(=O)c3cccc(C#N)c3OC[C@H]1O2,-1,-4,2.9
N#Cc1ccc(-c2ccc([C@H]3[C@H]4CNCC(=O)N4[C@H]3CO)cc2)cc1,2,0,1.8
N#Cc1cccc(-c2ccc(C3[C@H]4CNC[C@@H]3N4S(=O)(=O)c3ccc(F)cc3)cc2)c1 (stereo partly specified),10&17,8&4,2.1&13

# Later entries:
SMILES,DUX4 txn inh,DUX4 txn inh difference,DUX4 txn inh control
Cc1ccc(S(=O)(=O)N[C@@H]2CC[C@H](CC(=O)N3CCc4ccccc4C3)O[C@@H]2CO)cc1,-5,-7,1.9
CO[C@@H]1CN(C)C(=O)c2cc(NC(C)=O)ccc2OC[C@H](C)N(C(=O)c2cccnc2)C[C@H]1C,-1,-3,2.1
CCC(=O)N1CC[C@@H]2[C@H](CO)Nc3ccc(C#Cc4ccccc4)cc3[C@@H]21,4,-4,7.2
O=C(C1CCC1)N1C[C@@H]2[C@H](c3ccccc31)[C@@H](CO)N2S(=O)(=O)c1ccccc1,1,2,-1.2
C[C@@H]1CN([C@H](C)CO)C(=O)c2c(c3ccccc3n2C)-c2ccccc2CO[C@@H]1CN(C)C(=O)c1cc(Cl)cc(Cl)c1,?,.,.
O=C(C[C@@H]1CC[C@@H]2[C@H](COC[C@@H](O)CN2Cc2ccc(Cl)cc2)O1)NCc1cccc(F)c1,-4,8,-12
OC[C@H]1[C@@H](c2ccc(-c3ccc(F)cc3)cc2)[C@@H]2CN(Cc3cccnc3)CCCCN12,-9,-9,-0.8
Cc1noc(C)c1S(=O)(=O)N(C)C[C@H]1OCCCC[C@H](C)Oc2ccc(N(C)C)cc2C(=O)N([C@H](C)CO)C[C@@H]1C,-4,-4,-0.4
CC[C@@H]1C/C=C\C[C@@H](c2ccccc2)NC(=O)CCC(=O)N1,-1,0,-1.3
C[C@@H]1CN([C@@H](C)CO)C(=O)c2cc(-c3cccnc3)cnc2O[C@H]1CN(C)C(=O)c1ccccc1F,0,1,-1.4
O=C(CC1CC1)N1CC(=O)N2[C@H](CO)[C@H](c3ccc(C#Cc4cccc(F)c4)cc3)[C@@H]2C1,-8,-6,-1.4
C[C@H](CO)N1C[C@H](C)[C@H](CN(C)S(=O)(=O)c2ccc(Cl)cc2)OCc2cnnn2CCCC1=O,6,9,-3.0
COC(=O)C[C@@H]1C[C@H]2c3cc(N)ccc3O[C@H]2[C@@H](CO)O1,2,-7,8.6
O=C(c1cccnc1)N1CC[C@@H]2[C@H]1c1cc(-c3ccc(F)cc3)ccc1N[C@@H]2CO,?,.,.
O=S(=O)(c1ccccc1)N1CCCCN2[C@H](C1)[C@H](c1ccc(C#Cc3cccnc3)cc1)[C@@H]2CO,-45*,-26*,-19*
COc1ccc2c3c([nH]c2c1)[C@@H](CO)N(Cc1ccc(Cl)cc1)CC31CCN(C(=O)CN(C)C)CC1,0,-10,10
C[C@@H]1CN([C@H](C)CO)C(=O)c2c(c3ccccc3n2C)-c2ccccc2CO[C@H]1CN(C)C(=O)Nc1ccc(F)cc1,14,9,5.7
COc1ccc(NC(=O)N2CC(=O)N3[C@@H](CO)[C@@H](c4ccc(Br)cc4)[C@@H]3C2)cc1,5,2,2.7
O=S(=O)(c1ccccc1F)N1CC[C@@H]2[C@H](CO)Nc3ccc(-c4ccc(F)cc4)cc3[C@@H]21,-9,-5,-4.7
O=C(C[C@@H]1CC[C@H]2[C@@H](COC[C@H](O)CN2Cc2cccc(-c3ccncc3)c2)O1)N1CCN(c2ccccc2)CC1,?,.,.
C[C@@H]1CN([C@H](C)CO)C(=O)CCCn2cc(nn2)CO[C@H]1CN(C)C(=O)c1ccc(N2CCN(C)CC2)cc1,0,0,0.1
OC[C@@H]1[C@H](c2ccc(-c3ccc(F)cc3)cc2)[C@H]2CN(Cc3ccncc3)CCCCN12,-4,-1,-2.7
CCCNC(=O)N1C[C@@H](O)COC[C@H]2O[C@H](CC(=O)NCCCN3CCOCC3)CC[C@@H]21,6,-1,6.4
CC(C)CC#Cc1ccc([C@@H]2[C@H]3CN(C(=O)c4cccc(F)c4)CC(=O)N3[C@H]2CO)cc1,-9,5,-13
C/C=C/c1ccc([C@H]2[C@@H](CO)N(C(=O)Nc3ccccc3F)[C@H]2C#N)cc1,-1,-7,5.5
O=C(C1CCOCC1)N1CC(=O)N2[C@@H](CO)[C@H](c3ccc(C#CC4CCCCC4)cc3)[C@@H]2C1,11,-1,12
CCOC(=O)N(C)C[C@H]1OCc2ccccc2-c2ccccc2C(=O)N([C@H](C)CO)C[C@@H]1C,3,3,-0.2
CO[C@@H](CN(C)C(=O)Nc1ccc(C(F)(F)F)cc1)[C@@H](C)CN(Cc1ccccc1Cl)[C@@H](C)CO,2,-2,3.2
O=C(CC(F)(F)F)N1C[C@H]2[C@@H](c3ccccc31)[C@H](CO)N2C(=O)C1CCCCC1,4,3,0.8
CO[C@@H](CN(C)S(=O)(=O)c1ccc(F)cc1)[C@H](C)CN([C@@H](C)CO)S(=O)(=O)c1cccc(Cl)c1,5,-1,6.1

# Rewritten with values under each structure: entries from further up.
# Values run as follows: DUX4 txn inh, DUX4 txn inh difference, DUX4 txn inh control
> O=C(C1CCOCC1)N1CC(=O)N2[C@@H](CO)[C@H](c3ccc(C#CC4CCCCC4)cc3)[C@@H]2C1
 : 11, -1, 12
> CCOC(=O)N(C)C[C@H]1OCc2ccccc2-c2ccccc2C(=O)N([C@H](C)CO)C[C@@H]1C
 : 3, 3, -0.2
> CO[C@@H](CN(C)C(=O)Nc1ccc(C(F)(F)F)cc1)[C@@H](C)CN(Cc1ccccc1Cl)[C@@H](C)CO
 : 2, -2, 3.2
> O=C(CC(F)(F)F)N1C[C@H]2[C@@H](c3ccccc31)[C@H](CO)N2C(=O)C1CCCCC1
 : 4, 3, 0.8
